Compound activity from PubChem BioAssay.
hNpr1 antagonist: Natriuretic polypeptide receptor (hNpr1) antagonism - Primary qHTS; Atrial natriuretic peptide receptor 1 (Homo sapiens), P16066; HEK293 hNpr1 GloSensor cGMP, ANP-stimulated luminescence; Potency, µM (highest dose often 46.3 µM), for the others: at the highest dose activity change, negative = inhibition, hits mostly inhibitors; hit rate 1.6% among 76,000; AID 1347048, 2019; active = well fitted inhibition curve with a large enough effect; inconclusive = small, poorly fitted or top-dose-only effect; inactive = no such curve, though single readings can be large or run the other way;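 further: nearly all actives have a fitted effect of over 60% in size; nearly all hits also lower the signal before the agonist is added; a reference antagonist and vehicle were the controls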
Target sequence (P16066 whole entry, looked up): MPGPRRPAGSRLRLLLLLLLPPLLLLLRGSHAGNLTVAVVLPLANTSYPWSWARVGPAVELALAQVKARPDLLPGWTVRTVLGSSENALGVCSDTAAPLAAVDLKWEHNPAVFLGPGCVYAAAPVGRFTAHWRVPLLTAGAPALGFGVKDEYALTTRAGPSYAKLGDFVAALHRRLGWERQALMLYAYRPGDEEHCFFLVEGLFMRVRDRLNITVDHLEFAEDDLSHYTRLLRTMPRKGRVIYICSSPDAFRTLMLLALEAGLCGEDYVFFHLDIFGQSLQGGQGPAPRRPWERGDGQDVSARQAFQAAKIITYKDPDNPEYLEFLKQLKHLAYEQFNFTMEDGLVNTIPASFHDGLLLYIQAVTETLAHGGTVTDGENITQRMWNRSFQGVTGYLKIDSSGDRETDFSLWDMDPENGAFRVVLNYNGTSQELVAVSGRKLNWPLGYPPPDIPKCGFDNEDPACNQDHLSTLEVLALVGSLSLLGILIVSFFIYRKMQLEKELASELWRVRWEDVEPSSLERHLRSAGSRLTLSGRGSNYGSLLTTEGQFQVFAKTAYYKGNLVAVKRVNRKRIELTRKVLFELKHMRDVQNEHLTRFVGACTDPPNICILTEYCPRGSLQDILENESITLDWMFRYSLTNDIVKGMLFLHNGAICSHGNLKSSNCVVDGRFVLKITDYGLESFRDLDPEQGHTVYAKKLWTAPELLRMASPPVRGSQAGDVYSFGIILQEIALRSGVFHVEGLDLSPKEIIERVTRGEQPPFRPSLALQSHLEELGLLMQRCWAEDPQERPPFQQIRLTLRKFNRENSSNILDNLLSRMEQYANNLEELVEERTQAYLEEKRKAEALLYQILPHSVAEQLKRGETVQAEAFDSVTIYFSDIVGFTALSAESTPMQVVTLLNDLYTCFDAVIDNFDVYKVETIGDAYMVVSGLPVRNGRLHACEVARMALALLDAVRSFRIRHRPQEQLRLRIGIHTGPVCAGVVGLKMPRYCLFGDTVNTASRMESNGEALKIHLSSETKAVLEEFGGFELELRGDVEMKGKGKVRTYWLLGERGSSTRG
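HEK293 cells stably expressing human Npr1 and cGMP GloSensor pGS-40F, loaded 2 h with 2% GloSensor reagent, given compound 30 min at room temperature. Luminescence read before and 20 min after 0.1 nM hNppA.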
* marks the source's active call; other numbers are inactive results; u = inconclusive; [ ] = dose if it differs, or a comment. On the % scale 0 is the no-effect control and ±100 the full control effect; potency means the concentration at half of the fitted maximal effect. Some of the compounds tested; count on the stated rates, not on these rows.

compound	hNpr1 antagonist
Cc1ccc(CN2CCN(C(=O)C3Cn4cccc4C(=O)N3CC(C)C)CC2)cc1 (centres undefined)	2%
Cc1noc(-c2cn(C3CCN(C(=O)c4ccc[nH]4)C3)nn2)n1 (centres undefined)	-21%
COCCn1c(C)cnc1CCNS(=O)(=O)c1cccnc1	-1%
COCCn1nc2n(c1=O)CCN(C(=O)Cc1ccc(OC)c(OC)c1)CC2	4%
COC(C(=O)N1CCC2(CC1)Nc1ccccc1NC2=O)c1ccccc1 (centres undefined)	-1%
CNC(=O)N1CCOc2ccc(CCC(=O)NCC3CC3)cc2C1	5%
COc1ccc(S(=O)(=O)N2C[C@@H]3C[C@H](C2)c2c(-c4ccc(NC(C)=O)cc4)ccc(=O)n2C3)cc1	-6%
Cc1nc(S(=O)(=O)N2CCC(Cc3noc(-c4ccccc4)n3)C2)cn1C (centres undefined)	1%
Cn1c2c(cc(C(=O)N3CC[C@](C)(O)[C@@H](O)C3)c1=O)CCCC2	6%
CCc1cc(=O)n(CC(=O)Nc2ccccc2C)c(-c2cccc(F)c2)n1	3%
O=C1[C@H]2CN(Cc3ccc(Br)cc3)C[C@H]2C(=O)N1Cc1ccc2c(c1)OCO2	u
O=C(Cc1ccccc1)N1CCC(Oc2cccc(F)c2)C1 (centres undefined)	0%
O=C1NCCCCCCN(C(=O)c2ccco2)[C@H]2C[C@H](C(=O)N3CCN(c4ccccn4)CC3)C[C@@H]12	-5%
NC(=O)CN1C(=O)CO[C@H]2CN(Cc3ccc4c(c3)OCO4)C[C@H]21	-16%[70.6 µM]
Cc1cc(C)cc(C(=O)N2CCCC3(C2)NC(=O)N(Cc2ccccc2)C3=O)c1 (centres undefined)	5%
CCOc1cc(C(=O)N2CCC[C@H]2c2nc(-c3ccccc3Cl)no2)cc(OCC)c1OCC	2%
COc1ccc(CCC(=O)N2CCC3(CC2)CN(Cc2ccc(OC)cc2)C3=O)cc1	u
O=C(c1cccc(F)c1)N1CCOC[C@H](Oc2ccc(C(F)(F)F)cn2)C1	2%[70.6 µM]
O=C1CO[C@H]2CN(Cc3ccc(F)c(F)c3)C[C@H]2N1Cc1ccccn1	-11%[70.6 µM]
O=C(Cc1ccsc1)NC1CCN(c2cc(C(F)(F)F)ncn2)CC1	4%

Reprinted from the part before: six entries; new compounds follow.
compound	hNpr1 antagonist
Cc1cc(C)cc(C(=O)N2CCCC3(C2)NC(=O)N(Cc2ccccc2)C3=O)c1 (centres undefined)	5%
CCOc1cc(C(=O)N2CCC[C@H]2c2nc(-c3ccccc3Cl)no2)cc(OCC)c1OCC	2%
COc1ccc(CCC(=O)N2CCC3(CC2)CN(Cc2ccc(OC)cc2)C3=O)cc1	u
O=C(c1cccc(F)c1)N1CCOC[C@H](Oc2ccc(C(F)(F)F)cn2)C1	2%[70.6 µM]
O=C1CO[C@H]2CN(Cc3ccc(F)c(F)c3)C[C@H]2N1Cc1ccccn1	-11%[70.6 µM]
O=C(Cc1ccsc1)NC1CCN(c2cc(C(F)(F)F)ncn2)CC1	4%
CC(C)(C)NC(=O)C[C@@H]1CCNC[C@@H]1Cc1cc(-c2ccc(C(C)(C)C)cc2)on1	-11%[70.6 µM]
Cc1ncsc1CN1CC(Oc2cccc(C(=O)NCC3CC3)c2)C1	-13%
CCc1nc(N(C)Cc2nccn2Cc2ccccc2)c2cnn(C)c2n1	4%
COCCN1Cc2[nH]nc(-c3ccc(OC)c(F)c3)c2CC1=O	3%[70.6 µM]
CC1(C)CC1(C(=O)N1CCc2c(nc(N)[nH]c2=O)C1)c1cccs1 (centres undefined)	4%
Cc1cc(CNC(=O)[C@@H]2CCC[C@@H](NCc3cccc(Cl)c3)CN(C)C(=O)C2)no1	-4%[70.6 µM]
CCCCN1C(=O)CC[C@H]2CN(C(=O)Cc3c[nH]c(=O)n(C)c3=O)CC[C@H]21	1%
CCOc1ccccc1C1NC(=O)N(CC(=O)Nc2c(C)cccc2C)C2=C1C(=O)OC2 (centres undefined)	0%
COc1ccc2cc(-c3[nH]ncc3CN3CCN(c4cccc(C)n4)CC3)ccc2c1	u
Cc1ccc(C(=O)NC2CCN(c3ccc(F)cc3)C2=O)cc1C (centres undefined)	0%
O=C(NC1CCN(C(=O)N2CC3CC(C2)[C@H]2CCCC(=O)N2C3)CC1)c1ccc2ncccc2c1 (some centres undefined)	5%
O=C(c1cc2n(n1)CC(c1ccc(Cl)cc1)OC2)N1CCc2ccccc2C1 (centres undefined)	-5%
O=C(c1ccc(Cl)cc1)N1CCC(OC2CCN(Cc3cccnc3)CC2)CC1	3%
O=C(Nc1cccc(C(F)(F)F)c1)N[C@H]1CO[C@H]2[C@@H]1OC[C@@H]2n1nnnc1Oc1ccccc1	0%
Cc1cc2c(Nc3cccnc3)nc(-c3c(C)noc3C)cc2[nH]1	-12%[70.6 µM]
CN(C)C[C@@H]1CN(S(C)(=O)=O)C[C@H]1NC(=O)Cc1ccc(F)cc1	4%
Cc1oc(C(O)c2ccccc2)nc1C(=O)NCc1ccco1 (centres undefined)	-9%[70.6 µM]
NC(=O)COC[C@@H]1CN(Cc2ccco2)C[C@H]1c1ccncc1	-1%
Cc1cc(-c2cc3c(nc2-c2ccccc2)nc(C(=O)NCCN(C)C)n3C)ccn1	5%[70.6 µM]
Cc1ccc(OC2CCN(C(=O)C3CCCN(CC(N)=O)C3)CC2)cc1 (centres undefined)	6%
COc1ccc2nc(CO[C@H]3CN(C4CCC4)C[C@H]3F)[nH]c2c1	1%[70.6 µM]
COc1ccc(NC(=O)C2(C)COCc3cnc(Nc4ccccc4)nc32)cn1 (centres undefined)	-8%[70.6 µM]
Cn1nc(C2CCNCC2)n(CCc2ccccc2)c1=O	-5%
COc1ccc2nc([C@H]3CCN(Cc4cccc(C#N)c4)C3)[nH]c2c1	-10%[70.6 µM]
COCCN1C(=O)c2ccccc2C(C(=O)Nc2nccs2)C12CCCCC2 (centres undefined)	-7%
O=C(Nc1ccccc1F)N1CCC(N2C(=O)C3(CCCCC3)C2c2ccccc2)CC1 (centres undefined)	2%
CCNC(=O)N[C@H]1CO[C@H]2[C@@H]1OC[C@@H]2Nc1nccc(-c2ccc(-c3ccccc3)cc2)n1	11µM*
CC[C@H]1CN(C(=O)Nc2cccc(C(F)(F)F)c2)CC[C@H]1CC(=O)N(C)CCC#N	-25%[70.6 µM]
COC1CN(C2CCN(C(=O)c3ccoc3)CC2)C12CCOCC2 (centres undefined)	-2%
CCNC(=O)c1n[nH]c2c1CN(C(=O)c1cccc(OC(F)(F)F)c1)CC2	2%

Part of the list above in order of SMILES length, smallest number first.
compound	hNpr1 antagonist
Cn1nc(C2CCNCC2)n(CCc2ccccc2)c1=O	-5%
COC1CN(C2CCN(C(=O)c3ccoc3)CC2)C12CCOCC2 (centres undefined)	-2%
COc1ccc2nc(CO[C@H]3CN(C4CCC4)C[C@H]3F)[nH]c2c1	1%[70.6 µM]

The listing continues:
compound	hNpr1 antagonist
COc1ccccc1CCC(=O)N1CCC(N2CC3CC(C2)[C@H]2CCCC(=O)N2C3)CC1 (some centres undefined)	0%
Cc1noc(C)c1-c1cc2c(c(-c3ccc(F)c(Cl)c3)c1)C(=O)N(C)C2	8.9µM*
Cc1cccc(CC(=O)N2CC(Oc3ccccc3-c3noc(C)n3)C2)c1	2%
Cc1ccc(N2CC(c3noc(-c4ccccc4C)n3)CC2=O)cc1 (centres undefined)	-2%
CCn1ccnc1C1CCN(c2nc3ccccc3s2)CC1	u
COc1ccc(N2CC(c3noc(-c4ccccc4C)n3)CC2=O)cc1 (centres undefined)	4%
COCc1ccc2c(c1)c(OC(C)(C)C(=O)NCCCn1ccnc1)nn2Cc1cccc(OC)c1	-4%
COc1cccc(CN2C[C@H]3[C@H](C2)[S+](=O)([O-])C(C)(C)C(=O)N3Cc2ccccc2)c1	-8%[70.6 µM]
O=C(Nc1ccccc1Cl)C1CN(S(=O)(=O)C2CC2)CC12CCCCC2 (centres undefined)	-5%
Cc1cccc(NC(=O)N2CCC(c3noc(-c4ccncc4)n3)C2)c1 (centres undefined)	6%
CC1CCN(C(=O)c2ccccc2OCC2CCCN(Cc3ccccn3)C2)CC1 (centres undefined)	-2%
Cc1cc(C)n(CCCN(C)C(=O)c2cn(Cc3ccc(F)cc3)nn2)n1	4%
CN(Cc1ccccc1)C(=O)C[C@@H]1O[C@H](CNC(=O)c2ccc(F)c(Cl)c2)[C@@H](O)[C@H]1O	6%
COc1cccc(-c2cc3c(=O)n(CCNC(=O)Cc4ccc(Cl)cc4)ccn3n2)c1	u
COCC(=O)N[C@@H](Cn1cc(Br)c(=O)[nH]c1=O)C(=O)O	2%[70.6 µM]
COc1ccc(C(=O)N2C[C@@H]3OCC(=O)N(Cc4nccn4C)[C@@H]3C2)cc1	0%[70.6 µM]
Cc1noc(-c2cn(C3CCN(C(=O)c4ccc(F)cc4Cl)CC3)nn2)n1	-12%
CCOc1ccc(CC(=O)NCc2nnc3ccc(-c4ccc(C)cc4)nn23)cc1	-16%
O=C(Cc1c[nH]c2ncc(-c3ccccc3Oc3ccccc3)cc12)NCc1cccnc1	28µM*
CCCCOc1c(CNC(C)c2ncccc2C)cccc1OC (centres undefined)	-13%

(cont.)
smiles | hNpr1 antagonist
COc1ccc(-c2nnc([C@H]3CCN(Cc4cccc(C#N)c4)C3)o2)cc1 | -12%[70.6 µM]
N#Cc1ccc(S(=O)(=O)N2CCC3(CC2)CC2C(=O)NCCN2C3)cc1 (centres undefined) | 7%
Cc1cc2cc(-c3c(C)noc3C)nc(-c3ccnn3C)c2o1 | 5%[70.6 µM]
O=C(Nc1ccc(=O)n2c1[C@@H]1C[C@@H](CN(C(=O)Nc3ccc(F)cc3)C1)C2)c1ccc2c(c1)OCO2 | -13%
COc1ccc(C(CC(=O)N(C)Cc2cc(C)no2)c2ccccc2)cc1 (centres undefined) | -18%
CCCS(=O)(=O)NCCc1noc(C)n1 | -1%
CC(C)NC(=O)N(C1CC1)C1CCOC2(CCN(C(=O)NCc3ccccc3)CC2)C1 (centres undefined) | 2%
CCCN(CC1CCOC1)S(=O)(=O)c1ccc(OC)cc1 (centres undefined) | 6%
CCN(C1CCOCC1)C1CN(C(=O)c2ccnn2C)C1 | 0%
Cn1cnnc1-c1nn(C)c2c1CN(C(=O)c1n[nH]c3ccccc13)CC2 | 6%
Cc1ccc(NC(=O)C2CCN(c3cc(C(F)(F)F)ncn3)CC2)cc1F | 5µM*
CCn1ncc(N2CCC(NC(=O)Cc3ccsc3)CC2)cc1=O | 1%
COc1ccc(C2(c3nc(C4CCOC4)no3)CCCC2)cc1OC (centres undefined) | 6%
NC(=O)C1CCN(C(=O)[C@H]2C[C@@H](O)[C@H](O)[C@@H]3N=C(Nc4ccc(F)cc4)S[C@@H]32)CC1 | -1%
Cc1cnc(C)c(-c2cc(O)c3c(c2)CN(CC2CNC(=O)O2)CCO3)n1 (centres undefined) | 5%
Cc1ccc(NC(=O)CCn2ccn3nc4c(c3c2=O)CCCC4)c(C)c1 | 0%
CC(C)CC(=O)N1CCCCCC1c1nnc(-c2ccccc2)o1 (centres undefined) | 0%
COCCN1C(=O)c2ccccc2C(C(=O)Nc2nnc(C)s2)C12CCCCC2 (centres undefined) | 0%
COc1ccc(-c2ccc3nnc(CNC(=O)COc4cccc(C)c4)n3n2)cc1 | 1%
COc1ccc(F)c(CN2CCCC(O)(CN3CCC(C(C)C)CC3)C2=O)c1 (centres undefined) | -5%
CCOc1ccc2c(n1)CCN(C(=O)c1cnccn1)C2 | 6%
Cc1ccc(C2Cn3nnc(C(=O)N4CCC(C(=O)NC5CC5)CC4)c3CO2)cc1 (centres undefined) | -3%
COc1ccc([C@H]2C[C@@H](O)[C@@H](O)[C@@H]2NC(=O)c2cc(C)oc2C(F)(F)F)cc1 | u
CCc1nnc([C@@H]2CC(F)(F)CN2C(=O)Cn2cccn2)o1 | 0%
O=C(O)CCc1conc1-c1ccc(F)cc1 | -5%
COCC(=O)N1CCC2(CC1)NCCc1c2[nH]c2ccccc12 | 2%
Cc1nc2n(c1C(=O)NCCc1ccccc1)CCC(Nc1cccnc1)C2 (centres undefined) | 2%[70.6 µM]
Cc1nc(C)c(C(=O)N2CCCN(C(=O)C3CC3)C(c3ccccc3)CC(=O)NCC2)s1 (centres undefined) | 3%
COc1ccc(C(=O)N2CCC(N3CC4CC(C3)[C@H]3CCCC(=O)N3C4)CC2)c(OC)c1 (some centres undefined) | -3%
O=C(CN1CC2CC(C1)[C@H]1CCCC(=O)N1C2)N1CCCC1 (some centres undefined) | 0%
CCCNC(=O)N(C1CCOCC1)C1CCN(C(=O)Cc2c(F)cccc2Cl)CC1 | 7%
CCCn1ccc2oc(C)c(C(=O)N3CCN(c4ccc(F)cc4)CC3)c2c1=O | 7%
CCCC(=O)N1CCC(Oc2cnc3c(ccn3-c3cncnc3)c2)CC1 | 4%[70.6 µM]
CCc1[nH]c2c(CNC(=O)c3c(C)cc(C)n(C)c3=O)cc(F)cc2c1C | -1%
O=C(N[C@H]1CCN2C(=O)c3cc(-c4ccccc4)ccc3NC(=O)[C@H]12)c1cccs1 | -17%[70.6 µM]
O=C1NCN(Cc2ccc(Cl)cc2)C12CCN(Cc1ccc(C(F)(F)F)cc1)CC2 | -21%
CC(C)c1cc(NCCC(=O)NC2CCCCC2)n2nccc2n1 | 0%
CO[C@H]1C(=O)N(C2CCN(C(=O)Nc3ccccc3F)CC2)[C@H]1c1ccncc1 | 6%
Cc1cc(C(=O)N2CCOC[C@H](Oc3ccc(S(C)(=O)=O)cc3)C2)no1 | 2%[70.6 µM]
CC1(c2ccccc2)N(Cc2ccccc2)C(=O)OC12CCN(c1cccnc1)CC2 (centres undefined) | -2%[70.6 µM]
